From PubChem BioAssay
B2AR ag – beta2AR agonists driving receptor internalization, primary screen, cell-based, FAP fluorogen, flow cytometry; Beta-2 adrenergic receptor (Homo sapiens), P07550; Am2.2-beta2AR cells; reference of the scale not given here; response, % (no concentration beside the values); hit rate 0.43% among 340,000; AID 504454, 2011;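 active means response above a set limit, near 3 SD of response in nonfluorescent compounds, cut at about 42% in these data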;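 further: stock transfer was 100 nL into about 11 µL; a reference agonist was the positive control; negative values mostly stem from fluorescent compounds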
Target sequence (P07550 whole entry, looked up): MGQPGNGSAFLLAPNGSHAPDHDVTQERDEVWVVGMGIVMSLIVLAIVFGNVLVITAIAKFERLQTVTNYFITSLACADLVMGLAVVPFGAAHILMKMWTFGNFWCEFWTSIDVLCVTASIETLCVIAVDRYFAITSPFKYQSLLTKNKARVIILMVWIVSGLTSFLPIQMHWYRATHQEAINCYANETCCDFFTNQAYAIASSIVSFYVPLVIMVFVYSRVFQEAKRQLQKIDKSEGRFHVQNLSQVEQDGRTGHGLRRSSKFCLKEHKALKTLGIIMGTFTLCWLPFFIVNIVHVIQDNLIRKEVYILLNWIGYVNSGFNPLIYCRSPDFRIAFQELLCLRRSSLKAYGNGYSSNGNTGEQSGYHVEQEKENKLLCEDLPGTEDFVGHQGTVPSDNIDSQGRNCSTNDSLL
Beta cell apopt – inhibitors of cytokine-induced beta cell apoptosis, primary screen, luminescence; INS-1E cytokine-induced death, ATP luminescence, 48 h; percent of positive-control rescue, neutral wells zero; protection from apoptosis, % (concentration not given with the values); hit rate 0.8% among 300,000; AID 435005, 2010;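 active means all replicates at 75% or more, or half of them and the mean; inconclusive means half reach 75% but not the mean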;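 further: 0% = cytokine-treated negative control wells and 100% = positive control rescue; higher means more ATP so stronger rescue from cytokine killing; wells of about 40 µL received 100 nL stock; the first replicate is given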
RanGTP-Impb inh – inhibitors of RanGTP-importin-beta interaction, primary screen, biochemical, FRET, CFP-Ran, YFP-importin-beta, homogeneous. AID 2216, 2009. hit rate 1.1% among 300,000. cell-free CFP-Ran/YFP-importin-beta FRET ratio. inhibition, % (test concentration not listed);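 active means most replicates above 15%; inconclusive means exactly half above 15%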;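 further: 0% = DMSO wells and 100% = Ran loaded with GDP instead of GTP; wells of about 40 µL received 100 nL stock; the first replicate is given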
A1 inh – caspase 3/7 activation in MEF A1-2A-BIM cells, primary screen, A1 inhibitor project, cell-based, luminescence, HTS; Caspase-Glo 3/7 luminescence, 3 h; percent of clofoctol response, vehicle zero; caspase activation, % (no concentration beside the values); hit rate 0.066% among 330,000; AID 2462, 2010;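 active means over half of replicate activation scores above 10%, or exactly half above 10 with the replicate mean above 10; inconclusive means replicate mean below 10 yet half the replicates above 10; inactive means over half of replicates below 10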;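 further: wells of about 30 µL received 50 nL stock; many hits fall short of the cut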
LANA-H2A inh – blockers of LANA interaction with H2A/H2B – biochemical, FP readout, HTS, primary screen; Protein LANA1 (Human herpesvirus 8 type P (isolate GK18)), Q9QR71; cell-free LANA-H2A/H2B peptide, fluorescence polarization; inhibition, % (no concentration beside the values); hit rate 0.6% among 320,000; in the data active means inhibition mostly above about 10%, no sharp cut-off; inactive means mostly below about 6.7%;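 further: stock transfer was 7.5 nL into about 10 µL; 0% = median of vehicle wells and 100% = median of positive control wells; one replicate is shown; the record names a cut of 25% in any replicate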
Calb FLC – C. albicans growth inhibition with fluconazole, primary screen, CaCi-2 strain, Alamar Blue fluorescence. growth inhibition, % (concentration not given with the values). hit rate 0.57% among 300,000. C. albicans CaCi-2 (fluconazole-resistant clinical isolate) + fluconazole, 48 h;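 active means most replicates above 75%; inconclusive means exactly half above 75%; inactive means most below 75%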;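 further: all wells also contain fluconazole at 8 µg/ml as a sub-toxic cotreatment; 0% = median of DMSO wells and 100% = median of geldanamycin control wells; wells of about 8 µL received 7.5 nL stock; the first replicate is given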
T cruzi repl – inhibitors of intracellular T. cruzi growth, primary screen, luminescence, NIH3T3 host cells | T. cruzi beta-gal in NIH3T3, 90 h | inhibition, % (no concentration beside the values) | hit rate 1.4% among 300,000 | AID 1885, 2009;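 active means mean inhibition across valid replicates above about 55%, limit read from the data; inconclusive means mean below that limit but half or more replicates reach it; inactive means mean below it, under half of replicates reach it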;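 further: signal also drops with host cell toxicity which is not excluded here; 0% = plate median of DMSO wells and 100% = zero luminescence signal; higher percent means less beta-gal luminescence so fewer parasites; stock transfer was 50 nL into about 50 µL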
UCH37 inh – inhibitors of human UCH37 deubiquitinase, primary screen, biochemical, Ub-AMC cleavage, fluorescence; purified proteasome/UCH37; inhibition, % (concentration not given with the values); hit rate 0.33% among 330,000;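 active means mean of two replicates above 20%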;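 further: 0% = compound-free wells with enzyme and 100% = wells lacking proteasome; stock transfer was 100 nL into about 20 µL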
Target sequence (Q9Y5K5 whole entry, looked up): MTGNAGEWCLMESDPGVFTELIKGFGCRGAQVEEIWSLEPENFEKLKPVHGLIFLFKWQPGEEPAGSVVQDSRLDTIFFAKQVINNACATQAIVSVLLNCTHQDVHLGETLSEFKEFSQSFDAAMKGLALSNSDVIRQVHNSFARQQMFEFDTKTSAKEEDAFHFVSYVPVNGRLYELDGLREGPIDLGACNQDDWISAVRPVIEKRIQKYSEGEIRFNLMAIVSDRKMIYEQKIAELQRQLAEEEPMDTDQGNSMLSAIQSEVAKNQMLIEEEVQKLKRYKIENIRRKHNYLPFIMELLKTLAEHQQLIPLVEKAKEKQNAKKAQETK
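Schedule: 30 min plus 25 min, room temperature / Material: human UCH37 within purified proteasomes / Technique: AMC fluorescence intensity at 355/460 nm / Buffer or medium: pH 7.4 Tris-HCl (50 mM) with ovalbumin, ATP-MgCl2, DTT / Controls: wells without proteasome as full block, compound-free enzyme plus substrate as uninhibited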
* marks the source's active call; other numbers are inactive results; ? = inconclusive; · = no result given.

Sequence of screens: B2AR ag	Beta cell apopt	RanGTP-Impb inh	A1 inh	LANA-H2A inh	Calb FLC	T cruzi repl	UCH37 inh
- COc1ccccc1N(C)S(=O)(=O)c1ccc(C(=O)NCc2ccc3c(c2)OCO3)cc1
→ 8.1	2.7	-2.4	-0.4	1.7	0.9	22.2	3.0
- COc1ccc(CNc2ccc3c(c2)nc(C)n3C)cc1
→ 4.0	4.8	6.1	0.4	1.1	5.0	12.0	-3.5
- N#C/C(=C\C=C\c1ccccc1)c1nc(-c2ccc3c(c2)OCO3)cs1
→ 18.8	-4.1	-87.2	0.4	2.2	-2.8	-30.4	-2.0
- O=C(Cc1ccccc1)N1CCN=C1SCc1ccc([N+](=O)[O-])cc1
→ -1.4	-21.2	-1.6	0.6	-2.7	8.3	6.9	0.8
- Cc1ccc(C)c(N2CCN(C(=O)C34CC5CC(C3)CC(n3nnc(C)n3)(C5)C4)CC2)c1
→ 14.1	1.5	1.9	-0.5	2.6	21.2	40.6	-0.6
- CCN(CC)CCCN1CC(O)=C(c2nc3ccccc3s2)C1=N
→ 4.6	-0.3	2.4	-0.1	1.9	-1.1	45.1	2.8
- CCn1c(/C=C/c2ccc(O)c(O)c2)nc2ccccc2c1=O
→ -5.4	-1.3	1.7	-1.0	2.8	1.7	-24.3	-7.4
- CCOC(=O)C1(Cc2ccccc2C)CCCN(C(=O)CCc2c(C)noc2C)C1 (configuration not stated)
→ 5.3	-9.1	2.1	2.2	3.6	4.7	-5.2	2.6
- COCCn1c(SCC(=O)c2[nH]c(C)c(C(C)=O)c2C)nc2ccccc2c1=O
→ 4.7	-0.1	-1.4	-0.5	0.8	-1.7	3.3	1.2
- CCc1nc2c(sc3nc4c(cc32)COC(C)(C)C4)c(=O)n1Cc1ccco1
→ 4.8	-16.0	3.0	-0.6	-3.3	14.5	3.4	2.6
- N#CCC(=O)Nc1ccc(C(=O)NNC(=S)NC2CCCCC2)cc1
→ ·	-1.2	·	-1.0	-3.8	·	·	0.3
- COc1ccc(OC(=O)c2ccncc2)cc1
→ 2.7	·	0.4	0.1	0.2	-6.2	-1.2	4.1
- O=C(Nc1cc([N+](=O)[O-])ccc1Cl)C1CC1
→ 11.4	·	-0.3	-0.6	-3.7	-6.6	-6.8	1.1
- CCCC1(c2ccccc2)NC(=O)NC1=O (configuration not stated)
→ 4.9	-6.5	-2.7	0.2	3.3	-6.5	1.5	1.9
- N#Cc1c(NCCN)nc(-c2ccccc2)c2c1CCCC2
→ 16.9	5.1	-4.9	-0.3	-2.3	-1.3	15.1	-37.6

(list continues)
Sequence of screens: B2AR ag	Beta cell apopt	RanGTP-Impb inh	A1 inh	LANA-H2A inh	Calb FLC	T cruzi repl	UCH37 inh
- CC(=O)CSc1nnc(-c2ccco2)n1-c1ccccc1
→ -3.9	-0.8	-4.5	-0.5	3.4	-1.2	-16.0	-2.1
- CC(=O)N(C)c1ccc(NC(=O)Nc2ccccc2C)cc1
→ ·	8.3	3.2	-5.6	0.3	23.0	8.4	4.5
- CCOC(=O)c1[nH]c(CSc2nnnn2-c2ccccc2C)c(C(=O)OCC)c1C
→ -10.6	-8.4	·	-0.9	0.9	·	·	-1.6
- FC(F)(F)COc1ccc(-c2nnc(SCc3c(Cl)cccc3Cl)o2)cn1
→ 13.0	8.0	1.8	0.9	-6.8	-6.9	-34.0	1.3
- O=C(c1ccco1)N1CCN(C2CC(=O)N(c3ccccc3)C2=O)CC1 (configuration not stated)
→ -7.0	-6.1	8.3	-0.2	0.2	-19.1	-18.8	4.4
- O=S(=O)(c1ccccc1F)N1CCC(Oc2ccc(-n3cnnn3)cc2)CC1
→ 4.2	·	-0.4	·	·	1.5	16.0	-0.6
- CCN1CCN(c2cc(C)c3cc(NC(=O)c4cccs4)ccc3n2)CC1
→ 11.1	-5.1	-0.9	0.0	5.9	1.3	45.6	11.8
- O=C(CN(C(=O)c1csnn1)c1cccc2c1CCCC2)NC1CCCC1
→ -2.1	-3.6	-1.8	0.8	-11.3	-4.8	-2.4	-0.2
- COc1ccc(/C=C/C(=O)O)cc1S(=O)(=O)N1CCc2ccccc21
→ 2.9	-10.7	-2.0	0.6	-5.2	-2.2	-8.0	2.1
- Oc1ccc2ccccc2c1/C=N/c1nc2c(s1)CCCC2
→ 2.6	-13.6	-4.3	-1.4	3.1	0.4	-10.8	·
- COC(=O)c1ccc(C2C(C(=O)OCC(C)C)=C(C)N=C3SCCC(=O)N32)cc1 (configuration not stated)
→ -9.9	·	-1.5	-0.1	4.4	26.6	5.7	6.2
- COc1ccc(N(CC(=O)N/N=C/c2ccc(-c3ccc([N+](=O)[O-])cc3)o2)S(=O)(=O)c2ccc(C)cc2)cc1
→ 18.3	-0.5	-10.3	0.9	0.7	-6.6	42.4	·
- O=C(NC1CCCCCC1)c1ccc(CS(=O)Cc2cccc(Cl)c2)o1 (configuration not stated)
→ -4.7	-4.1	-8.6	-0.4	-7.0	-1.4	3.7	2.1
- CC1CC(C)CN(C(=O)c2cc3cc(Br)cc(Br)c3o2)C1 (configuration not stated)
→ 4.2	8.7	1.5	0.4	-5.8	6.0	27.9	-0.6
- COc1cc2cnc(-c3ccccc3)c(-c3ccc(C#N)cc3)c2cc1OC
→ -2.9	3.8	·	-0.9	2.9	·	·	3.0

(more compounds)
Sequence of screens: B2AR ag	Beta cell apopt	RanGTP-Impb inh	A1 inh	LANA-H2A inh	Calb FLC	T cruzi repl	UCH37 inh
- CCN(c1ccccc1)S(=O)(=O)c1ccc(C(=O)OC(C)C(=O)NCCC2=CCCCC2)cc1 (configuration not stated)
→ -4.1	-2.6	-2.6	0.0	-3.2	-2.3	-11.2	1.0
- COc1ccc(C(=O)CCN2CCc3cc(OC)c(OC)cc3C2)cc1
→ -0.8	-26.9	1.7	1.5	-10.5	0.0	45.9	1.3
- Cc1oc(C(C)(C)C)cc1C(=O)Nc1ccc(C(=O)O)cc1
→ 1.5	-10.4	6.6	0.1	-0.6	-2.7	-5.9	2.8
- Cc1ccc(C)c(OCCn2nnc3ccccc32)c1
→ -0.4	-1.9	?	-0.7	6.4	-8.5	-11.9	-3.2
- Clc1ccc(-c2noc(CCCc3ccccc3)n2)cc1
→ -3.4	·	0.1	0.1	-1.0	0.9	-1.3	2.1
- O=C1C[C@H](NC(=O)OCc2ccccc2)CO1
→ 7.5	-2.2	·	1.1	0.6	·	·	2.1
- CCOC(=O)c1sc(=S)n(Cc2ccccc2)c1N
→ 12.4	-4.6	-1.6	-1.0	0.5	45.9	2.5	6.0
- Cc1cccc(N2CCN(C(=O)CC(NC(=O)c3ccccc3Cl)c3ccccc3)CC2)c1C (configuration not stated)
→ -2.9	-1.0	3.5	-1.2	1.8	10.0	26.9	4.5
- COc1ccc(/C=C/C(=O)N2CCN(c3ccccn3)CC2)cc1OC
→ -0.8	1.0	2.9	-1.6	-2.8	25.3	-5.1	2.9
- Cc1cc(C)nc(N2CCC(C(=O)NCc3ccccc3)CC2)n1
→ -1.1	-3.9	2.0	0.6	0.5	-34.5	-5.2	-1.3
- O=C(Nc1nnc(SCc2ccc(Cl)cc2)s1)C1CCCO1 (configuration not stated)
→ 3.8	-7.2	6.8	0.5	1.7	4.5	8.2	0.4
- COCCNC(=O)CSc1c2c(nc3ccc(Cl)cc13)CCCC2
→ 2.1	3.0	?	0.4	-6.0	6.3	19.6	4.8
- Cc1cc(C(=O)CN2C(=O)C(=O)N(Cc3ccccc3)C2=O)c(C)n1Cc1ccc(F)cc1
→ 4.1	4.3	·	-0.2	4.4	·	·	2.7
- O=C(/C=C/c1cc([N+](=O)[O-])ccc1OC(F)F)Nc1ccc(OC(F)F)cc1
→ -1.0	7.6	8.0	-1.1	-0.4	40.2	23.1	1.7
- NC(=O)C1(N2CCCCC2)CCN(c2ccc3nnc(-c4ccccc4)n3n2)CC1
→ 5.3	4.2	2.4	0.5	-2.0	-3.6	-0.9	7.1

Carrying on.
Sequence of screens: B2AR ag	Beta cell apopt	RanGTP-Impb inh	A1 inh	LANA-H2A inh	Calb FLC	T cruzi repl	UCH37 inh
- CCOC(=O)c1ccccc1NC(=O)COc1coc(CN2CCc3ccccc32)cc1=O
→ -7.1	3.5	?	0.2	-1.8	10.0	-4.2	-0.6
- CC1Cc2ccccc2N1C(=O)CN1CCN(Cc2ccccc2)CC1 (configuration not stated)
→ -0.8	·	5.5	1.0	5.8	-15.8	47.4	5.2
- Cc1cc(CNC(=O)COC(=O)Cn2[nH]c(=O)c3ccccc3c2=O)cc(C)c1O
→ -2.5	0.8	2.3	-0.4	-0.6	-3.0	-7.7	1.1
- COc1ccc(CCNC(=O)CCS(=O)(=O)c2ccc3c(c2)NC(=O)C(C)S3)cc1OC (configuration not stated)
→ ·	-4.4	2.9	0.0	-2.5	-6.1	-6.6	4.3
- O=C(COC(=O)CN1C(=O)NC2(CCCC2)C1=O)Nc1c(Cl)cccc1C(F)(F)F
→ -2.1	-3.7	-5.5	-1.1	-2.5	-3.0	-10.1	3.9
- CN1CCN(C(=S)c2cn(Cc3ccc(Br)cc3)c3ccccc23)CC1
→ -7.7	-9.7	-1.5	-0.1	-2.7	1.0	·	2.1
- O=C(CSc1nnc(-c2ccncc2)n1Cc1ccco1)OC1CCCCC1
→ 10.7	-1.5	-2.3	-0.6	-1.4	-9.9	-2.6	1.7
- CCOc1ccc2[nH]c(=O)c(CN(Cc3ccccc3OC)C(=O)c3ccccc3)cc2c1
→ -21.1	3.7	3.2	0.2	-2.6	0.4	-4.1	-17.0
- Cc1ccc(CCNC(=O)NC(C)(C)C)cc1
→ 5.4	5.9	0.0	0.9	-2.4	-1.7	0.2	1.2
- Cc1ccc(N=C2SC(C(=O)NCCc3ccccc3)CC(=O)N2C)cc1C (configuration not stated)
→ -1.6	5.1	3.8	0.3	3.1	7.0	-8.6	·
- COc1ccc(C(=O)Nc2ccc(-c3nnn(CC(=O)N4CCN(C(=O)c5ccco5)CC4)n3)cc2)cc1
→ 2.4	0.0	-1.2	0.5	-11.0	9.4	-2.2	-2.9
- Cc1ccc(-n2c(CNc3cccc(Cl)c3)n[nH]c2=S)cc1
→ 6.5	-7.0	1.6	0.0	-1.8	17.0	-1.5	-3.1
- COc1ccc(CNC(=O)COC(=O)/C=C/c2cccc(Br)c2)cc1OC
→ 3.6	-2.5	2.7	-0.2	1.1	-31.0	-4.8	0.3
- CN1C(=O)C2(c3ccccc31)N(C)CC(c1ccccn1)C21SC(=S)N(Cc2ccco2)C1=O (configuration not stated)
→ -5.7	5.9	-1.1	-0.3	2.1	11.0	7.2	4.2
